Bioassay records (PubChem BioAssay)
Arbovirus inh = antivirals against arbovirus infection, primary screen, cell-based, full library, 10K replicate subset | AID 1251, 2008 | hit rate 0.37% among 200,000 | inhibition, % at 10 µM | arbovirus infection cell-based antiviral screen;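 active means inhibition from about 30%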;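 further: bluetongue infection of BSR cells; cell survival read as ATP light after 72 h; 0% = infected wells without compound and 100% = uninfected wells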
RecA intein inh = Mtb RecA intein splicing inhibitors, primary screen, biochemical, fluorescence, HTS | Protein RecA (Mycobacterium tuberculosis (strain ATCC 25618 / H37Rv)), P9WHJ3 | cell-free RecA intein splicing | inhibition, %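 (about 9 µM by stock and volumes)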 | hit rate 0.75% among 290,000; in the data active means inhibition above about 30%; inconclusive means no clear call, values can overlap the other calls;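 further: 0% = vehicle wells and 100% = reference inhibitor control wells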
Target sequence (P9WHJ3 whole entry, looked up): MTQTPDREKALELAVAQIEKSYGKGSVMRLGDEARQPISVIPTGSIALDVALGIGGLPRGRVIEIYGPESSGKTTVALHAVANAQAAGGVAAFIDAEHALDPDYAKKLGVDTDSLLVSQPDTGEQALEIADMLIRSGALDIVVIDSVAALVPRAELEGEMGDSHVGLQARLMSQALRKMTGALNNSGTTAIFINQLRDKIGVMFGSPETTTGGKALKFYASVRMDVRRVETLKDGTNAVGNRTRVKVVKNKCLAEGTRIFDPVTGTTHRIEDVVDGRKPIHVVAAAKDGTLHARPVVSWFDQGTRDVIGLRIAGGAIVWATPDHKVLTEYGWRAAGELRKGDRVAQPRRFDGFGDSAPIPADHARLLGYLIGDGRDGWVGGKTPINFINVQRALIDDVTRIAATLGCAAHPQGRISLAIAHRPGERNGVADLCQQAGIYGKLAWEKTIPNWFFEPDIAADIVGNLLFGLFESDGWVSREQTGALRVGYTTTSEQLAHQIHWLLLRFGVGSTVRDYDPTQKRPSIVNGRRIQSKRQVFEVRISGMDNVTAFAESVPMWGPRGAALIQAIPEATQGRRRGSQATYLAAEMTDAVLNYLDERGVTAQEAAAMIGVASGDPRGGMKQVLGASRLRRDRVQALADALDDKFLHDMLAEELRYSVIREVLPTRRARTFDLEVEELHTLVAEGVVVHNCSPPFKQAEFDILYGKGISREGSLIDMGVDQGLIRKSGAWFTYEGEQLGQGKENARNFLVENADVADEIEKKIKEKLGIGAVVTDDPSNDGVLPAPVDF
Mtb growth = M. tuberculosis H37Rv growth inhibitors, H37Rv strain (AID 1626). inhibition, % at 10 µM; hits with a dose series show IC50 in µM. hit rate 0.95% among 220,000. M. tuberculosis H37Rv growth inhibition; higher % means a stronger effect;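 active means confirmed in a dose series; inconclusive means inhibition above 80% but not taken into the dose series; inactive means below 80% or under 30% at every dose of the series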;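 further: bacteria incubated seven days before Alamar blue readout; 0% = bacteria only wells and 100% = bacteria with antibiotic wells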
YopH PTP inh = YopH tyrosine phosphatase inhibitors, primary screen, biochemical, fluorescence Ex485/Em525; inhibition, %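 (about 10 µM by stock and volumes)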; YopH tyrosine phosphatase [Yersinia enterocolitica]; AID 898, 2007; hit rate 0.16% among 140,000;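 active means inhibition of 50% or more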;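 further: controls were vehicle for no effect and minimum signal wells for full effect; inactives centre near -20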
Mtb betalactam = beta-lactam sensitization of Mtb H37Rv, H37Rv. M. tuberculosis H37Rv growth with meropenem, percent inhibition; hits of this screen are not shown here. inhibition, % at 25 µM. hit rate 0.27% among 330,000. AID 434955, 2010;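 active means about 74% or more and at least 40 points above the plate without the antibiotic, then above 30% in a dose series; inconclusive means first-round hits that could not be retested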;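 further: growth measured after seven days incubation then overnight dye step; 0% = bacteria only wells and 100% = bacteria with antibiotic; twin plates without the antibiotic show which effects depend on it; some results filed as inactive read as strong as hits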
Arbovirus inh repeat = recorded beside Arbovirus inh, whose call it bears; inhibition, %; measured here: 10K subset replicate screen; many hits read low in the repeat;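 first of two repeat runs on a subset; 0% = infected and 100% = uninfected wells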
The depositor's hits bear a star; ? = inconclusive; . = no result given.

Start of the listing, in advance (six entries):
SMILES	Arbovirus inh	RecA intein inh	Mtb growth	YopH PTP inh	Mtb betalactam	others
Cn1c(CCCOc2ccc(Cl)cc2Cl)n[nH]c1=S	-2	-2.5	-11%	.	-10
COCCN(CCOC)S(=O)(=O)c1ccc(C(=O)Nc2sc3c(c2C(N)=O)CCCCC3)cc1	-2	-26	2%	-23	6
CCOC(=O)C1=C(CCc2ccccc2)NC(=O)NC1c1ccc(C#N)cc1 (centres undefined)	.	0.8	-4%	.	-7
O=C(NNC(=S)NCc1ccc(Cl)cc1)c1ccc(Br)o1	25	19	-4%	.	0
Cc1cc(NC(=O)/C=C/c2ccc(F)cc2)n(-c2nc3ccccc3[nH]2)n1	-16	2.4	14%	-21	-1
O=C(O)CC1S/C(=N\N=C/c2ccccc2)N(c2ccc(O)cc2)C1=O (centres undefined)	0	1.6	-9%	-16	5

The whole of this part, from the start:
SMILES	Arbovirus inh	RecA intein inh	Mtb growth	YopH PTP inh	Mtb betalactam	others
Cn1c(CCCOc2ccc(Cl)cc2Cl)n[nH]c1=S	-2	-2.5	-11%	.	-10
COCCN(CCOC)S(=O)(=O)c1ccc(C(=O)Nc2sc3c(c2C(N)=O)CCCCC3)cc1	-2	-26	2%	-23	6
CCOC(=O)C1=C(CCc2ccccc2)NC(=O)NC1c1ccc(C#N)cc1 (centres undefined)	.	0.8	-4%	.	-7
O=C(NNC(=S)NCc1ccc(Cl)cc1)c1ccc(Br)o1	25	19	-4%	.	0
Cc1cc(NC(=O)/C=C/c2ccc(F)cc2)n(-c2nc3ccccc3[nH]2)n1	-16	2.4	14%	-21	-1
O=C(O)CC1S/C(=N\N=C/c2ccccc2)N(c2ccc(O)cc2)C1=O (centres undefined)	0	1.6	-9%	-16	5
COc1cccc(OC)c1C(=O)N1CCN(Cc2ccccc2C)CC1	-2	-1.2	-4%	-49	0
COc1ccc(-n2c(O)c(C=NC3CC3)c(=O)[nH]c2=O)cc1	3	-0.4	-9%	5	0
CC(=O)Oc1ccccc1C1OC(=O)c2ccccc2N1C(C)=O (centres undefined)	1	5.1	-3%	4	1
O=C(Nc1ccc(F)cc1F)NC1CCN(Cc2c(F)cccc2Cl)CC1	.	2.7	-8%	.	-8
CCC(=O)Nc1ccc(NCc2cccs2)cc1	.	-4.2	.	.	-4
COc1ccc(CCCc2nnc(SCC(=O)Nc3cc(C)c(C)cc3Br)o2)cc1	9	3.6	-2%	-5	53
Cc1c([N+](=O)[O-])cc(C(=O)N2CCOCC2)cc1[N+](=O)[O-]	-3	-0.7	-6%	-22	?
c1ccc(CSC2=NCCS2)cc1	2	-1.7	4%	.	2
CCC(C)[C@H](NC(=O)NCCCOC(C)C)C(=O)OC (some centres undefined)	.	-1.0	-11%	.	-9

Structural class: those above with bromine
SMILES	Arbovirus inh	RecA intein inh	Mtb growth	YopH PTP inh	Mtb betalactam	others
O=C(NNC(=S)NCc1ccc(Cl)cc1)c1ccc(Br)o1	25	19	-4%	.	0
COc1ccc(CCCc2nnc(SCC(=O)Nc3cc(C)c(C)cc3Br)o2)cc1	9	3.6	-2%	-5	53

The list goes on:
SMILES	Arbovirus inh	RecA intein inh	Mtb growth	YopH PTP inh	Mtb betalactam	others
O=C(CSc1nnc(CNC(=O)c2cccs2)o1)c1ccccc1	-6	1.6	3%	4	-12
CC1C(=O)N2CCCc3cc(NS(C)(=O)=O)cc1c32 (centres undefined)	.	-0.4	.	.	-6
CC(C)COc1ccc(-c2nn(-c3ccccc3)cc2CO)cc1	.	-0.4	.	.	91
Cc1cc(Cl)c(S(=O)(=O)NC2CCCCC2)cc1OCC(=O)Nc1nncs1	22	0.3	-3%	-14	-14
CC1(C)CC(NC(=O)COc2cc3oc(=O)c4c(c3cc2Cl)CCC4)CC(C)(C)N1	.	-2.8	.	.	2
COc1cccc(NC(=O)N2C3CCCC2CC(NC(C)=O)C3)c1 (centres undefined)	.	0.0	.	.	-12
N#CC1=C(N)Oc2n[nH]c(-c3cccs3)c2C1c1cccnc1 (centres undefined)	0	69*	0%	1	7
Cc1cc(Br)cc2cn[nH]c12	-1	1.9	0%	.	-4
O=C1CSc2ccc(C(=O)O)cc2N1	4	-0.3	2%	.	8
Cc1ccc(C[n+]2cccc(-c3ccccc3)c2)c(C)c1	0	-2.7	-11%	-18	-3
COc1cc(CN2C(=O)C(NC(=O)c3ccco3)(C(F)(F)F)C3=C2CC(C)(C)CC3=O)cc(OC)c1 (centres undefined)	-9	2.3	3%	-2	0
CN(C)c1ccc(/C=N/N2CCN(c3ccccn3)CC2)cc1	.	-2.2	-11%	.	-9
CCNS(=O)(=O)c1ccc(CCC(=O)NCc2ccccc2)cc1	-2	.	5%	.	-6
O=C1NC(=O)N(c2cccc(F)c2)C(=O)/C1=C/c1ccc(N2CCOCC2)cc1	.	-1.0	.	.	-12
COc1cc(O)oc1C=Nc1ccccc1	3	.	-5%	-5	-4
CCOC(=O)CC/C(=N\NC(N)=O)c1ccc(OC)c(Cl)c1	.	-1.3	.	.	1
COC(=O)C1=C(C)N(Cc2ccc(OC)cc2)C(=O)/C1=C\c1ccco1	.	2.7	8%	.	-6
Cc1ccc(CNC(=O)c2ccc(S(=O)(=O)N(C)C)cc2)n1C	.	1.0	.	.	0
Cc1cc(C(=O)COC(=O)c2ccc(N)c([N+](=O)[O-])c2)c(C)n1Cc1ccc2c(c1)OCO2	.	-3.2	-6%	.	1
CCCn1c(NC(=O)c2cccc(C)c2C)nc2ccccc21	-22	8.1	1µM*	-15	97
COc1ccc(C(=O)Cn2nc(CNc3ccc(Br)cc3)[n+]3c2CCCCC3)cc1	-9	1.9	?	.	99
CCCCNC(=S)Nc1ccc2nc(N3CCN(CC)CC3)cc(C)c2c1	.	-0.5	.	.	5
CCOc1ccc(C(F)(F)F)cc1NC(=O)COc1ccc(C(F)(F)F)cc1[N+](=O)[O-]	-7	-2.1	-3%	-41	5
CSCCC(NS(=O)(=O)c1ccc(Cl)cc1)C(=O)OCC(=O)N1CCCc2ccccc21 (centres undefined)	15	2.8	7%	-20	4
CC(C)[C@H]1C(=O)Nc2ccccc2N1C(=O)N[C@@H](Cc1ccccc1)C(=O)N[C@H](C(=O)O)c1ccccc1	.	2.6	.	.	2
COc1ccc(NS(=O)(=O)c2cccs2)cc1S(=O)(=O)N1CCCCC1	.	3.1	.	.	-16
Cc1cc(=O)oc2cc(OCC(=O)Nc3ccccc3C(=O)O)ccc12	.	5.2	.	.	0
O=C(NCc1cccnc1)c1ccc(Cl)c(S(=O)(=O)N2CCOCC2)c1	.	-0.4	.	.	-1
CC(=O)NC(Cc1ccccc1)Cc1ccccc1	.	0.3	.	.	-2
COc1cc(-c2nnc3n2N=C(c2ccccc2)CS3)cc(OC)c1OC	-32	1.1	-5%	-39	4

2 records drawn at random from those above:
SMILES	Arbovirus inh	RecA intein inh	Mtb growth	YopH PTP inh	Mtb betalactam	others
CCCn1c(NC(=O)c2cccc(C)c2C)nc2ccccc21	-22	8.1	1µM*	-15	97
CCC(C)[C@H](NC(=O)NCCCOC(C)C)C(=O)OC (some centres undefined)	.	-1.0	-11%	.	-9

Back to the main list, repeating the three entries before the break.
SMILES	Arbovirus inh	RecA intein inh	Mtb growth	YopH PTP inh	Mtb betalactam	others
O=C(NCc1cccnc1)c1ccc(Cl)c(S(=O)(=O)N2CCOCC2)c1	.	-0.4	.	.	-1
CC(=O)NC(Cc1ccccc1)Cc1ccccc1	.	0.3	.	.	-2
COc1cc(-c2nnc3n2N=C(c2ccccc2)CS3)cc(OC)c1OC	-32	1.1	-5%	-39	4
Cc1cccc(Sc2c([N+](=O)[O-])ncn2C)c1	1	16	5%	-22	-8
O=C(CC(c1ccccc1)c1ccccc1)Nc1nn[nH]n1	4	3.8	5%	.	-1
Cc1nc(N2CCN(Cc3ccccc3)CC2)nc2c1C(=O)CC(C)C2 (centres undefined)	-10	3.3	-4%	-18	2
Cc1ccc(N(CCO)C(=S)Nc2ccccc2)cc1	.	-1.4	.	.	-5
CN(C)CCCn1c(=O)n(Cc2ccco2)c(=O)c2c3c(sc21)CCCCC3	.	2.3	-6%	.	-10
Clc1ccc2nc(-c3ccncc3)cc(-c3ccccc3)c2c1	8	-1.3	6%	-13	-2
CC(C)CN(C(=O)COC(=O)c1ccc2ccccc2c1)c1c(N)n(Cc2ccccc2)c(=O)[nH]c1=O	.	-3.2	.	.	2
CCN(CC)CCNC(=O)c1ccccc1N	8	-2.3	3%	-13	-24
COc1cccc(N2C(=O)CN(Cc3cc(OC)c(OC)c(OC)c3)C2=S)c1	.	-0.9	.	.	-4
CCc1ccc(OCC(=O)OCC(=O)NCCNC(=O)COC(=O)COc2ccc(CC)cc2)cc1	.	-2.8	.	.	6
O=C(COC(=O)c1cccnc1Nc1cccc(C(F)(F)F)c1)NCCN1C(=O)CSC1=O	7	-1.1	-2%	3	-5
S=C(NCCc1ccc(Cl)cc1)NC1CCCCC1	.	13	.	.	18
CCCCOC(=O)Cn1c(=N)n(CCN2CCOCC2)c2ccccc21	.	.	-4%	-21	-1
COc1ccc(CCN2CC(C(=O)Nc3ccc(S(C)(=O)=O)cc3)CC2=O)cc1OC (centres undefined)	.	-0.6	.	.	0
CN1CCN(NC(=S)Nc2ccc(OC(F)F)cc2)CC1	3	-3.6	6%	.	5
Nn1c(SCc2nc3ccccc3[nH]2)nnc1C1CCCCC1	2	.	11%	-43	1
Cc1cc(C)nc(NS(=O)(=O)c2ccc(NC(=O)CCCN3C(=O)c4ccccc4C3=O)cc2)n1	4	-0.2	-10%	-37	-3	Arbovirus inh repeat=1
CCOC(=O)c1cnc(-n2nc(C)cc2C)nc1Nc1ccc(C)cc1	4	1.1	.	-41	.
CC1CCCCN1C(=S)Nc1ccc(OC(F)F)cc1 (centres undefined)	10	-0.2	11%	-9	-10
CC(C)(C)NC(=S)NC1CC1	.	-1.8	-5%	.	2
CC(C)(C)NC(=O)CN(C(=O)c1ccc(Cl)nc1)c1cccc2ccccc12	0	2.8	-8%	.	-8
O=C(Nc1ccc2c(c1)OCO2)C1CC(c2c(F)cccc2Cl)=NO1 (centres undefined)	-8	2.2	-3%	5	4
C=CCOc1ccc(/C=C/C(=O)OCC(=O)NC(C)c2ccc(F)cc2)cc1 (centres undefined)	.	0.9	.	.	-14
Cc1cc(C)cc(N(C(C)C(=O)N2CCCCC2)S(C)(=O)=O)c1 (centres undefined)	7	2.4	8%	-37	-14
c1csc(-c2nc(NCC3CCCO3)c3ccccc3n2)c1 (centres undefined)	.	3.9	.	.	5
O=C(Nc1cc2c3c(c1)CC(=O)N3CCC2)c1ccc(Br)cc1	.	5.5	.	.	-5
CCCCN(CC)C(=O)CN1C(=O)c2ccccc2C1=O	6	4.1	4%	-21	1
CCN1CCN(CCNC(=O)CCCn2nc(C)c3c(C)n(-c4ccc(C)cc4)nc3c2=O)CC1	.	-7.9	.	.	-2
CCOC(=O)CN(C(=O)COC(=O)C1(c2ccccc2)CC1)c1ccc(F)cc1	.	1.5	.	.	-1
CC(=O)c1sc(Nc2nc3cc4c(cc3s2)OCO4)nc1C	-3	1.9	65%	.	.
COc1ccc(CN(C)C(=O)CNC(=O)c2ccc3ccccc3c2)c(OC)c1	.	0.6	.	.	-5
COc1ccc2[nH]c(C(=O)NCCCn3ccnc3)cc2c1	.	-1.7	.	.	4
COc1ccc(OC)c(-c2csc(NC(=O)C3COc4ccccc4O3)n2)c1 (centres undefined)	2	-1.4	4%	.	0
CN(Cc1nc2ccccc2n1C)S(=O)(=O)c1ccc(Cl)cc1	-7	-0.3	5%	-2	-9

These rows are one share of the data (hit frequency here may not be typical).
